Screening data (PubChem BioAssay)
Rce1 inhib – blocks yeast Ras-converting enzyme; Q03530; yeast membranes, quenched prenylated peptide cleavage fluorescence; calls only; 290,000 compounds, 0.27% hits;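 active means fall in fluorescence gain of 50% or more versus controls, with final raw signal at or below 3038400; inconclusive means same 50% fall but final raw signal above 3038400; inactive means fall in fluorescence gain under 50%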;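 further: plate controls were neutral control wells for no effect and wells lacking membranes for full effect; tested at 10 µM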
CSC inhib – blocks cancer stem cells | cancer stem cell-like cells viability, luminescence | inhibition, % at 7.5 µM | 300,000 compounds, 1.1% hits;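 active means mean at 75% or more and at least half the replicates too; inconclusive means mean and replicates disagree; tested in HMLE shEcad cells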;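 further: 0% = median of negative and 100% = median of positive control wells; the first replicate is given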
PABP FP inh – PABP-poly(A) binding inhibition | P11940 | PABP-poly(A) RNA binding, fluorescence polarization | inhibition, % at 35 µM | 290,000 compounds, 1% hits;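 active means 50% or more with normal probe brightness, or confirmed in later tests; inconclusive means above 50% with abnormal brightness, or retests that disagree; inactive means below 50% or failed in later tests; about a fifth of its hits are not listed in these tables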;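 further: calls also rest on retests at 20 µM and on dose response follow-up; controls were probe without protein and protein plus probe with vehicle; some compounds called inactive have numbers as strong as hits; many hits fall short of the cut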
Target sequence (P11940 whole entry, looked up): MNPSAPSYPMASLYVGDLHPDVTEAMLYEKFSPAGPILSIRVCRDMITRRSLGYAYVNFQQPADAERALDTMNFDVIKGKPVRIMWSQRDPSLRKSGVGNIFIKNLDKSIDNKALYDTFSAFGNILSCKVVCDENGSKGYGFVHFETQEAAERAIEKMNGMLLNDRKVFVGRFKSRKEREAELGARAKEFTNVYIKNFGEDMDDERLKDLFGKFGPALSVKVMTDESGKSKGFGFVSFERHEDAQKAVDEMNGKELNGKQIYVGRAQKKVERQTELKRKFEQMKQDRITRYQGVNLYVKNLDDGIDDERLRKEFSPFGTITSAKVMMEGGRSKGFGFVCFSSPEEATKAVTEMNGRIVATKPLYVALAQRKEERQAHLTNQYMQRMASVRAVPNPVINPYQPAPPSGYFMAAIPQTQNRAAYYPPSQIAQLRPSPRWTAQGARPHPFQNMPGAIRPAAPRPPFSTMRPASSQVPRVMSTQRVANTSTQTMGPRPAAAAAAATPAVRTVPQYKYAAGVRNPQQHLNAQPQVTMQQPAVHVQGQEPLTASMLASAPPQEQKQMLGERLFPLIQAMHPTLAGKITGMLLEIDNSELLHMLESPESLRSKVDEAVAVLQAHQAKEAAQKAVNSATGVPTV
Env fusion inh – inhibitors of HIV Env-mediated cell fusion. 360,000 compounds, 1.1% hits. inhibition, % at 12.3 µM. HeLa-JRFL Env/CEM21 cell fusion, luciferase;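 active means mean replicate inhibition score of at least 50 and every replicate individually at or above 50; inconclusive means only one of the two criteria met; inactive means mean below 50 and not all replicates reaching 50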;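 further: 0% = plate neutral controls and 100% = maraviroc near 300 nM; one replicate is shown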
MT1-MMP act inh – MT1-MMP (human) activation inhibition | P50281 | HT1080 RFP-PRO-GFP cells, GFP/RFP ratio fluorescence, overnight; percent of plate control window, DMSO zero | GFP/RFP ratio change, % at 20 µM | 360,000 compounds, 0.061% hits | AID 651647;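 active means GFP/RFP ratio change of at least 30% with cell ATP level not reduced by more than half and red fluorescence within 50% of control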; further: strong numbers were not always called active
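Test system: HT1080 cells expressing an RFP-PRO-GFP fluorescent reporter construct / Compound dosing: single-point 20 µM compound, 1% DMSO / Schedule: cells overnight before dosing, compound overnight, 37 °C, 5% CO2 / Evaluation: GFP/RFP fluorescence ratio / Control set: DMSO and RFP-L50D-GFP cell wells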
UUG fidelity – modulators of start codon recognition fidelity in yeast | S. cerevisiae UUG-firefly luciferase reporter, luminescence/redox ratio | activity score, % at 18.7 µM | 350,000 compounds, 0.13% hits;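 active means replicate mean at a twofold rise or more, about +100% in these data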;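 further: firefly luciferase made from a UUG start codon reports start codon fidelity; reporter light over untreated wells divided by growth signal over untreated wells; some hits fall short of that in this replicate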
eIF4H FP inh – inhibitors of RNA binding by human eIF4H; 290,000 compounds, 0.94% hits; AID 2012; inhibition, % at 35 µM; eIF4H fluorescence polarization binding assay;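 active means 50% or more with normal probe brightness, or confirmed in later tests; inconclusive means above 50% with abnormal brightness, or retests that disagree; inactive means below 50% or failed in later tests; about a fifth of its hits are not listed in these tables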;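 further: calls also rest on retests at 20 µM and on dose response follow-up; 0% = protein and probe with vehicle and 100% = probe without protein; strong numbers were not always called active; many hits fall short of the cut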
eIF4H FP inh retest – recorded beside eIF4H FP inh, whose call it bears; inhibition, %; compound at 20 µM; confirmation average;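 mean of two retest wells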
PABP FP inh retest – also measured in PABP FP inh; calls as there; inhibition, %; compound at 20 µM; confirmation repeats;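 mean of two retest wells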
MT1-MMP act inh RFP – second read-out of MT1-MMP act inh, no call of its own (marks repeat the call); RFP signal change, %; measured here: RFP expression control read;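 0 = vehicle wells; hits needed this value within 50% of zero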
An asterisk follows results filed as active; i = inactive; ? = inconclusive; nt = no result given; & = joins results of further samples.

SMILES	Rce1 inhib	CSC inhib	PABP FP inh	Env fusion inh	MT1-MMP act inh	MT1-MMP act inh RFP	UUG fidelity	eIF4H FP inh	others
COc1cc(Nc2ccc(C)cc2)c([N+](=O)[O-])nc1[N+](=O)[O-]	i	?	-3	17	6	-12	-2	4
CC1(C)CC(=O)C(N=Nc2ccc(C(F)(F)F)cc2[N+](=O)[O-])=C(O)C1	i	-11	-2	-6	6	-3	-28	1
CC(Oc1cc2oc(=O)c3c(c2cc1Cl)CCC3)C(=O)NCCCn1ccnc1 (centres undefined)	i	-6	-5	-2	0	-1	-23	-1
O=C(CCS(=O)(=O)c1ccccc1)Nc1nc(-c2ccc(F)cc2)cs1	i	?	-11	13	18	-4	nt	8
Cc1cnn(-c2nc(-c3cccs3)cc(C(F)(F)F)n2)c1	i	19	-9	-12	-2	-2	-16	8
O=C(O)[C@@H]1CC(O)CN1C(=O)CCc1c[nH]c2ccccc12 (some centres undefined)	i	-1	11	-4	nt	nt	-5	-3
COc1cccc(CN2CCN(c3ncccn3)CC2)c1OC	i	0	3	14	6	1	-2	14
CN(C)c1ccc(NC(=O)c2ccc(Cn3cc([N+](=O)[O-])cn3)cc2)cc1	i	11	-8	-1	3	-6	-11	-6
CCCCN(CCCC)S(=O)(=O)c1ccc(NC(=O)c2ccc([N+](=O)[O-])cc2Cl)cc1	i	47	9	-3	-24	-33	nt	-8
COc1ccc(CCNC(=O)C2CC(c3c(Cl)cccc3Cl)=NO2)cc1 (centres undefined)	i	-3	-6	-6	1	-1	-7	-7
COCC(C)NC(=S)N1CCN(c2ccccc2Cl)CC1 (centres undefined)	i	6	?	3	0	1	nt	-4
CCN1C(=O)[C@H]2[C@@H](c3ccc(C)cc3)N3C(=O)N(c4cccc(Cl)c4)C(=O)[C@@]3(C)[C@H]2C1=O	nt	-1	nt	37	-2	0	12	nt
CCC(c1nnc(SCC(=O)NCCc2ccc(OC)c(OC)c2)n1Cc1ccccc1)N(C)C (centres undefined)	i	-12	10	0	-2	2	nt	6
CCOC(=O)CN1C(=O)C(O)(CC(=O)c2ccccn2)c2ccccc21 (centres undefined)	i	1	-4	-14	-3	1	-17	2
O=c1[nH]nnc2sc3c(c12)CCCC3	i	-14	7	nt	-10	-4	-10	6
COc1ccc(C2CC(c3cccs3)=NN2C(=O)CSc2nnnn2C)cc1OC (centres undefined)	i	6	-14	22	2	1	nt	-16
CC(C)c1ccc(CNCc2ccccc2)cc1	i	34	-1	nt	5	0	nt	2
N#Cc1c(N)nc2c(c1-c1cccs1)CCCC2	i	-20	-1	0	-3	-7	0	0
CCc1ccccc1Nc1ncnc2ccccc12	i	-14	3	-2	6	-7	-15	-8
Cc1cc(C)nc(-n2nc(C)c(C3(O)C(=O)Nc4ccccc43)c2N)n1 (centres undefined)	i	7	1	nt	-3	3	-32	-4
CCOC(=O)c1c(N)sc(C(=O)OC)c1C	i	-15	-4	-6	-1	-1	nt	2
Cc1ccccc1C(=O)NCCn1cc(SCC(=O)NCC2CCCO2)c2ccccc21 (centres undefined)	i	-11	-6	3	0	-9	-15	3
Cn1nc(-c2ccccc2)c(CO)c1Oc1ccc(F)cc1	i	-43	-7	0	2	1	nt	-1
Cc1cc(C)n2nc(C(=O)OCCOc3ccc(Br)cc3)nc2n1	i	-3	7	nt	14	7	-15	3
COc1cc(CNC2CCCC2)c(Br)cc1OC1CCCC1	i	15	6	-1	1	0	nt	11
O=C(COC(=O)c1ccco1)NC1CCCCC1	i	-12	-2	7	5	5	-5	-5
COC(=O)c1cc(N2CCN(C)CC2)nc2ccccc12	i	-4	-6	-13	-35	1	nt	?
CCCn1cc(S(=O)(=O)c2ccccc2)c(=O)c2cc(CC)ccc21	i	10	4	2	1	0	-33	-17
COc1ccc(-c2noc(CCC(=O)NCc3ccco3)n2)cc1	i	2	0	10	0	-3	-7	-10
COc1ccc(/C=N/NC(=O)c2ccc(Cl)cc2)cc1Cn1cc(Cl)cn1	i	-2	9	-19	9	3	nt	-11
CCn1cc(C(=O)O)c(=O)c2cnc(N3CCN(C(=S)NC(=O)c4ccc(Cl)cc4)CC3)nc21	i	4	2	nt	nt	nt	nt	57	eIF4H FP inh retest=-4;PABP FP inh retest=5
COc1ccccc1N(CC(=O)NCCSCc1ccccc1)S(C)(=O)=O	i	-13	5	8	4	1	-26	-10
CCCn1nnnc1SCC(=O)N1CCOCC1	i	29	-9	14	-1	4	-33	1
COc1ccc(/C=C/C(=O)Nc2ccc(C(N)=O)cc2)cc1OC	i	-8	-11	-3	5	-4	-11	-5
Cn1c(/C=C/c2ccc(Br)cc2)c([N+](=O)[O-])c(=O)n(C)c1=O	i	46	13	-24	-7	-19	-7	10
CCOC(=O)C1CCCN(CC(=O)NC2CC2)C1 (centres undefined)	i	1	47	2	-6	-3	-6	11
CC1CCC(NC(=O)CCN2C(=O)C3C4C=CC(C4)C3C2=O)CC1 (centres undefined)	i	-8	3	-9	5	0	-10	5
CCN(CC)C(=O)C1=C(C)N(Cc2ccc(OC)cc2)C(=O)C(CC(=O)NCc2ccco2)C1 (centres undefined)	nt	nt	nt	-6	4	1	-3	nt
O=C(CSc1ncccn1)NCc1cccc(Cl)c1	nt	-4	-2	-4	1	3	nt	-4
Cc1nc2c(C#N)cnn2c2c1CCN2CC1CCCO1 (centres undefined)	nt	2	8	25	-9	3	-15	5

Entries above with a furan ring, fused or not (3):
SMILES	Rce1 inhib	CSC inhib	PABP FP inh	Env fusion inh	MT1-MMP act inh	MT1-MMP act inh RFP	UUG fidelity	eIF4H FP inh	others
O=C(COC(=O)c1ccco1)NC1CCCCC1	i	-12	-2	7	5	5	-5	-5
COc1ccc(-c2noc(CCC(=O)NCc3ccco3)n2)cc1	i	2	0	10	0	-3	-7	-10
CCN(CC)C(=O)C1=C(C)N(Cc2ccc(OC)cc2)C(=O)C(CC(=O)NCc2ccco2)C1 (centres undefined)	nt	nt	nt	-6	4	1	-3	nt

Other entries:
SMILES	Rce1 inhib	CSC inhib	PABP FP inh	Env fusion inh	MT1-MMP act inh	MT1-MMP act inh RFP	UUG fidelity	eIF4H FP inh	others
CCOC(=O)c1sc(NC(=O)CCc2ccc(OC)cc2)nc1C	i	-11	-6	-10	1	-1	-16	-3
Cc1cnc(C(=O)Nc2nnc(SCc3c(Cl)cccc3Cl)s2)cn1	i	3	-4	8	3	3	nt	13
Cc1ccc(S(=O)(=O)N2CCC(C(N)=O)CC2)cc1[N+](=O)[O-]	i	-25	-1	-10	0	2	-7	6
O=C(COc1ccc(S(=O)(=O)N2CCOCC2)cc1Cl)NCC1CCCO1 (centres undefined)	i	-7	-1	-66	0	1	1	-11
CNS(=O)(=O)c1cccc(C(=O)OCC(=O)NCCCc2ccccc2)c1	i	-21	-3	-9	-3	-2	3	-7
OCCN1CCN(CC(O)COC(c2ccc(F)cc2)c2ccc(F)cc2)CC1 (centres undefined)	i	24	-2	-4	-2	1	-9	-8
C[C@H](CO)N1C[C@H](C)[C@H](CN(C)S(=O)(=O)c2ccc(F)cc2)Oc2ncc(Br)cc2C1=O	nt	nt	nt	18	1	4	-2&-2&4	nt
CCOCc1nnc(NC(=O)c2cc(OC)cc(OC)c2)s1	i	-5	4	-20	0	0	nt	-12
Cc1onc(-c2ccccc2)c1C(=O)NCCN1CCOCC1	i	-3	-5	nt	3	6	-14	-5
CCOc1ccccc1CNc1nnnn1C	i	-13	3	13	-2	0	-3	-16
CC(C)c1ccc(S(=O)(=O)Nc2ccc(-n3cnnn3)cc2)cc1	nt	nt	nt	13	-9	-8	-12	nt
Cc1ccc(Nc2nc(NCc3ccccc3)nc3ccsc23)c(C)c1	nt	nt	nt	3	-10	-20	-5	nt
O=C(c1ccco1)N1N=C(c2cccs2)CC1c1ccccc1O (centres undefined)	i	-8	-19	1	-3	-3	-14	-5
NS(=O)(=O)c1ccc(CCNC(=O)Nc2ccc(Cl)cc2)cc1	i	-4	0	-10	1	-1	-6	-5
CC(=O)Nc1ccc(OC(F)(F)C(F)F)c(NC(C)=O)c1	i	-3	2	-13	5	3	-1	-3
CCN1CCN(Cc2ccc(NC(=O)c3cc(NC(=O)c4ccc5n[nH]nc5c4)cc(OC)c3)cc2C(F)(F)F)CC1	i	-7	-6	-15	8	1	-6	4
COc1ccc(C2c3[nH]c4ccccc4c3CCN2C(=O)c2ccccc2C(C)=O)c(F)c1 (centres undefined)	i	11	2	-21	3	0	-2	16
O=C(O)c1cc(-c2ccccc2)n(-c2ccc(F)cc2)n1	i	nt	10	3	-5	3	-17	-3
Cc1ccc(O)c(CNc2nc3ccccc3[nH]2)c1	i	nt	-5	-37	20	4	-9	-3
COC1=CC(C)C2CC3OC(=O)CC4C(C)=C(OC)C(=O)C(C2(C)C1=O)C34C (centres undefined)	nt	nt	nt	16	1	2	-10	nt
CCc1ccc(C2N3CC4([N+](=O)[O-])CN2CC([N+](=O)[O-])(C3)C4(C)C)cc1 (centres undefined)	i	nt	0	-19	-2	5	-6	3
Cc1cc(/C=C2\C(=N)N3N=C(C(C)C)SC3=NC2=O)c(C)n1-c1ccccc1	i	-11	-15	-4	-4	0	nt	36
COCCNC(=S)N1CCOCC1	i	-6	0	5	-4	-4	-1	9
CCN1CCc2c(OCC(=O)N3CCC(C)CC3)cccc2C1=O	i	-5	0	3	3	8	-14	1
O=C(CCN1CCCC1=O)NC1CCCc2c1cnn2-c1ccc(F)cc1F (centres undefined)	i	11	-3	-4	-2	-10	-7	7
C=CCOc1ccc(Oc2cc(C)nc(SC)n2)nn1	i	-10	7	9	-2	1	15	-2
Cc1cc(C)nc(/N=C(\N)N2CCc3ccccc32)n1	i	-1	-7	-7	0	1	-15	-9
COc1ccc(-c2cc(-c3cccs3)nc3sc(C#N)c(N)c23)cc1	i	-5	9	14	-3	1	nt	10
Cc1nnc(-c2cnn(-c3ccccc3)c2N)n1Cc1cccc(C(F)(F)F)c1	i	3	-2	-23	0	0	-11	-2
Cc1oc(-c2ccc(Cl)cc2)nc1CS(=O)CC(=O)NCc1ccccc1 (centres undefined)	i	-14	4	-7	2	2	-19	-10
O=C(CNc1cccc(S(=O)(=O)N2CCCC2)c1)Nc1ccc(C(F)(F)F)cc1	i	10	nt	nt	11	-25	nt	nt
CC(C)NC(=O)C1CC(=O)N(CCc2ccc(F)cc2)C1 (centres undefined)	nt	nt	nt	8	3	6	-2	nt
CCOC(CNC(=O)CCc1c(C)nc2nc(C)nn2c1C)OCC	nt	3	8	3	3	3	-18	-2
Cc1cccn2c(=O)c(C=C(C#N)C#N)c(N3CCN(c4ccccc4)CC3)nc12	i	3	18	1	-1	2	nt	17
CCn1nc(C(=O)Nc2ccc(S(=O)(=O)Nc3ncccn3)cc2)c2ccccc2c1=O	i	-3	3	-23	1	1	nt	3
CCOc1ccccc1C(=O)NCCCN1CCN(CCCNC(=O)c2ccccc2OCC)CC1	i	-14	44	-70	-1	-2	11	-5
O=C(NC(=S)Nc1ccc(S(=O)(=O)Nc2nccs2)cc1)c1cccnc1	i	7	-6	-8	-6	1	nt	10
COCCCN1C(=O)c2[nH]nc(-c3cc(C)cc(C)c3O)c2C1c1ccc(O)c(OC)c1 (centres undefined)	i	-7	-14	-62	1	-9	-9	-11
COc1ccc(CCNC(=O)CSc2ccc(-c3ccco3)nn2)cc1	i	3	-6	11	-5	-7	nt	44
